From PubChem BioAssay
Mtb hypoxia rep: reduces hypoxia-regulated biosensor signal in M. tuberculosis. M. tuberculosis hypoxia-regulated fluorescent reporter, fluorescence. fluorescence inhibition, % (concentration not given with the values). hit rate 0.1% among 300,000;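 active = 35 to 45% if threefold the growth effect, above 45% if 1.5-fold the growth effect; inactive = the rest, general growth blockers included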;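 also: wells of about 50 µL received 100 nL stock; 0% = vehicle wells and 100% = reference inhibitor wells; whole bacteria with a GFP reporter of the hypoxia response; strong numbers were not always called active; many hits fall short of the cut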
PrP 5UTR inh: inhibition of PrP 5' UTR reporter expression; AID 488862; hit rate 0.35% among 340,000; inhibition, % (test concentration not listed); cell-based PrP 5' UTR mRNA reporter, plate reader;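 active = every replicate at 50% or more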;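 also: 0 = median of the neutral control wells; tested in H4 reporter cells; numbers are from one replicate; inactives centre near -14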
Sa ugtP lethal: compounds lethal to S. aureus RN4220 ugtP deletion mutant. OD600 growth, 16 h; some inactives read as strong as hits. growth inhibition, % (no concentration beside the values). hit rate 0.54% among 330,000;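 active = z-score under -3 and OD600 up to 0.15 on both plates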;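 also: plate controls were untreated wells for no effect and antibiotic for full effect; wells of about 80 µL received 100 nL stock; the first replicate is given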
Bead autofluor: flagged as autofluorescent in microsphere protease counterscreen; compound autofluorescence counterscreen, microsphere flow cytometry; active compounds read high; fluorescence intensity (no concentration beside the values); hit rate 3.1% among 360,000; AID 624483;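 active = at least 3 SD above the mean of all compounds, about 16000 in these data; inconclusive = too few beads counted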;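 also: 100 nL of 1 mM stock went into each well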
RN4220 kill: S. aureus RN4220 growth inhibition | OD600, 16 h | inhibition, % (concentration not given with the values) | hit rate 0.33% among 330,000 | AID 1259311;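 active = z-score of -3 or lower and OD600 up to 0.18 on both plates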;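 also: plate controls were untreated cells for no effect and reference antibiotic for full effect; stock transfer was 100 nL into about 80 µL; one replicate is shown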
BJeLR lethal: kills HRASV12-expressing BJeLR cells | BJeLR (HRASV12) viability, CellTiter-Glo ATP luminescence, 48 h; reference of the scale not given here | inhibition, % (no concentration beside the values) | hit rate 0.17% among 300,000 | AID 1554;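 active = replicate mean above 50%; inconclusive = above 50% but judged a plate artefact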;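 also: 50 nL library stock added to about 25 µL; numbers are from one replicate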
Mtb hypoxia rep growth: recorded beside Mtb hypoxia rep, whose call it bears; growth inhibition, %; measured here: M. tuberculosis growth (absorbance);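 0% = vehicle and 100% = reference antibiotic; read after six days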
Active calls of the source: *; u = inconclusive; x = no result given.

Compound	Mtb hypoxia rep	Mtb hypoxia rep growth	PrP 5UTR inh	Sa ugtP lethal	Bead autofluor	RN4220 kill	BJeLR lethal
COc1ccc2c(=O)c(C(=O)NCc3ccccc3)c[nH]c2c1	6	14	-22	3	3850	6.7	1
CCC(C(=O)c1ccccc1)N(C(=O)c1ccccc1Cl)N1C(=O)C2C3C=CC(C3)C2C1=O (configuration not stated)	-6	-1	0	-13	15469	6.6	-13
Cc1oc2c(c(C)cc3oc(=O)c(CC(=O)NCC(=O)NCC(=O)O)c(C)c32)c1C	x	x	-11	x	4643	x	-1
COc1ccc(NC(=O)c2cn(-c3ccccc3)nc2SC)cc1	13	-1	-32	1	3882	2.5	7
CCc1ccc(NC2=NCC(=O)N2c2ccc3c(c2)OCCO3)cc1	-1	0	6	1	4580	-1.8	-7
CCC(CC)c1nnc(NC(=O)Oc2ccccc2)s1	-7	3	x	-5	5722	-1.9	-7
COc1ccc(C2(C)NC(=O)N(CC(=O)NCc3ccccc3)C2=O)cc1OC (configuration not stated)	17	0	-12	-3	3978	0.7	5
O=C(CN1CCN(S(=O)(=O)c2ccc(F)cc2)CC1)Nc1ccc2c(c1)OCCO2	x	x	1	2	3708	0.4	7
COc1ccc(NS(=O)(=O)c2ccc(O)c(C(=O)OCC(=O)NC(C)C3CC4CCC3C4)c2)cc1 (configuration not stated)	10	-5	-34	-15	4224	38	5
Fc1ccc(C=NNc2nc3ccccc3[nH]2)cc1F	6	-14	x	-7	x	-6.4	x
NC(=O)COc1ccc(/C=C2\C(=O)ON=C2c2ccccc2)cc1	5	8	-13	5	8185	-0.9	x
COc1ccc(C(=O)NCCCc2nc3ccccc3n2Cc2cc(C)ccc2C)cc1OC	7	4	-3	-7	6399	-8.2	-2

Next part.
Compound	Mtb hypoxia rep	Mtb hypoxia rep growth	PrP 5UTR inh	Sa ugtP lethal	Bead autofluor	RN4220 kill	BJeLR lethal
O=C(O)/C=C/C(=O)N1CCN(c2ccc(F)cc2)CC1	13	4	-13	8	4765	7.8	-13
COc1ccc(C(c2c(C)[nH][nH]c2=O)c2c(C)[nH][nH]c2=O)cc1Br	9	0	-6	1	3891	3.7	-11
O=c1nc(SCc2ccccc2Cl)nc(-c2ccc(Cl)cc2)[nH]1	x	x	-53	x	3573	x	-2
COc1cc(NC(=S)N2CCN(C(c3ccccc3)c3ccccc3)CC2)cc(OC)c1	x	x	-6	14	4673	-6.1	-2
CCC(=O)Nc1ccc(Nc2nc(Cl)nc(Nc3ccc(NC(=O)CC)cc3)n2)cc1	x	x	8	x	2006	x	-8
CCOCCCNC(=O)CN1C(=O)COc2ccc(S(=O)(=O)N3CC(C)CC(C)C3)cc21 (configuration not stated)	16	6	-11	-5	5383	6.5	-7
Cc1c(-c2cc(C(=O)O)c3ccccc3n2)cnn1C	2	3	-11	-1	4798	-0.2	4
CC1(C)OCC(C2CC(c3ccccc3)NS(=O)(=O)O2)O1 (configuration not stated)	-2	0	-14	0	2798	4.9	10
Nc1[nH]n2c(=O)cc(-c3ccccc3)nc2c1N=Nc1ccc(S(N)(=O)=O)cc1	19	5	5	11	u	4.9	-5
CCCCN1C(=S)NC[C@@H]1Cc1ccc(O)cc1	x	x	-8	x	3390	x	-2
CN(C)CCOCCOc1ccc(Cl)cc1Br	8	15	-4	14	4563	5.0	11
COc1ccccc1C(=O)Nc1ccc2c(c1)nc1n2CCN(C2CCCCC2)C1	4	7	-27	2	4390	1.1	0

13 successive compounds already listed, quoted:
Compound	Mtb hypoxia rep	Mtb hypoxia rep growth	PrP 5UTR inh	Sa ugtP lethal	Bead autofluor	RN4220 kill	BJeLR lethal
COc1ccc(NS(=O)(=O)c2ccc(O)c(C(=O)OCC(=O)NC(C)C3CC4CCC3C4)c2)cc1 (configuration not stated)	10	-5	-34	-15	4224	38	5
Fc1ccc(C=NNc2nc3ccccc3[nH]2)cc1F	6	-14	x	-7	x	-6.4	x
NC(=O)COc1ccc(/C=C2\C(=O)ON=C2c2ccccc2)cc1	5	8	-13	5	8185	-0.9	x
COc1ccc(C(=O)NCCCc2nc3ccccc3n2Cc2cc(C)ccc2C)cc1OC	7	4	-3	-7	6399	-8.2	-2
O=C(O)/C=C/C(=O)N1CCN(c2ccc(F)cc2)CC1	13	4	-13	8	4765	7.8	-13
COc1ccc(C(c2c(C)[nH][nH]c2=O)c2c(C)[nH][nH]c2=O)cc1Br	9	0	-6	1	3891	3.7	-11
O=c1nc(SCc2ccccc2Cl)nc(-c2ccc(Cl)cc2)[nH]1	x	x	-53	x	3573	x	-2
COc1cc(NC(=S)N2CCN(C(c3ccccc3)c3ccccc3)CC2)cc(OC)c1	x	x	-6	14	4673	-6.1	-2
CCC(=O)Nc1ccc(Nc2nc(Cl)nc(Nc3ccc(NC(=O)CC)cc3)n2)cc1	x	x	8	x	2006	x	-8
CCOCCCNC(=O)CN1C(=O)COc2ccc(S(=O)(=O)N3CC(C)CC(C)C3)cc21 (configuration not stated)	16	6	-11	-5	5383	6.5	-7
Cc1c(-c2cc(C(=O)O)c3ccccc3n2)cnn1C	2	3	-11	-1	4798	-0.2	4
CC1(C)OCC(C2CC(c3ccccc3)NS(=O)(=O)O2)O1 (configuration not stated)	-2	0	-14	0	2798	4.9	10
Nc1[nH]n2c(=O)cc(-c3ccccc3)nc2c1N=Nc1ccc(S(N)(=O)=O)cc1	19	5	5	11	u	4.9	-5

Later entries:
Compound	Mtb hypoxia rep	Mtb hypoxia rep growth	PrP 5UTR inh	Sa ugtP lethal	Bead autofluor	RN4220 kill	BJeLR lethal
CCOc1ccccc1C(=O)N1CCN=C1SC	x	x	-20	3	4111	1.2	2
CCCNC(=O)C1(CC2CC(c3ccccc3)=NO2)CCNCC1 (configuration not stated)	9	11	-25	3	4200	4.7	-1
CC(C)(C)N(Cc1ccccc1)C(=O)c1cc2ccccc2o1	17	13	-22	61	4095	-0.4	14
CC(C)n1nc(C(=O)NCCCN2CCCC2=O)c2ccccc2c1=O	7	1	-5	1	5040	-1.9	-7
CCn1nnc(-c2ccccc2NS(=O)(=O)c2ccc(C(=O)OC)cc2)n1	3	4	-18	-7	7320	10	-5
NS(=O)(=O)c1cccc(NC(=O)CC2(CC(=O)O)CCCC2)c1	7	9	-6	7	3662	0.7	-17
Cc1ccc(S(=O)(=O)N2CCOCC2)cc1NC(=O)COC(=O)Cc1cccs1	-3	-2	-27	0	3794	-1.5	-17
COC(=O)c1nc(-c2ccc(C)cc2)oc1N(C)C	14	3	-13	7	7076	5.5	11
O=C(NCc1ccco1)c1cnn2c(C(F)(F)F)cc(-c3cccs3)nc12	x	x	-22	19	2263	-8.4	5
CCCn1c(SCC(=O)Nc2cc(Cl)ccc2Cl)n[nH]c1=O	18	15	-34	1	3792	0.5	-7
COc1cc([N+](=O)[O-])c(N2CCOCC2)c([N+](=O)[O-])c1OC	1	-5	-10	2	3175	5.7	-21
Cc1nc(N2N=C(c3ccc(Cl)cc3)CC2c2ccco2)sc1C(=O)N(C)C (configuration not stated)	-6	8	-4	-3	4435	-2.6	22

Next compounds follow:
Compound	Mtb hypoxia rep	Mtb hypoxia rep growth	PrP 5UTR inh	Sa ugtP lethal	Bead autofluor	RN4220 kill	BJeLR lethal
CC1CCc2nn(CC(=O)Nc3ccc(F)cc3F)cc2C1 (configuration not stated)	x	x	1	1	4384	9.7	-7
CN(C)C(=O)NC(NC(=S)Nc1ccccc1)C(Cl)(Cl)Cl (configuration not stated)	2	5	-24	-2	4564	-1.5	-9
O=c1cc(-c2ccccc2)c2ccccc2[nH]1	9	6	-20	2	10284	6.8	-7
COCCn1c(SCC(=O)Nc2cccc(NC(C)=O)c2)nc2c([nH]c3ccccc32)c1=O	8	0	-11	0	5573	2.1	-11
Cc1c(C(=O)Nc2c(F)cccc2F)sc2ncn(CC(=O)N3CCCCC3)c(=O)c12	4	1	-4	3	4063	4.2	-10
NS(=O)(=O)c1ccc(N/N=C/c2cn(-c3ccccc3)nc2-c2cccs2)c([N+](=O)[O-])c1	x	x	-16	x	3202	x	45
CC(=O)C1=C(c2ccccc2)NC(=O)NC1c1ccc2c(c1)OCO2 (configuration not stated)	4	-5	-10	11	3077	5.6	-3
Cc1c(NC(=O)c2ccccc2N)cccc1C(=O)O	3	12	-23	-1	20340*	4.6	-6
CCCCCn1c(SCC(=O)c2ccccc2)nc2cc(C(=O)NCc3ccco3)ccc2c1=O	1	-3	-19	-5	4133	3.8	x
O=C(Nc1ccc(F)cc1)c1ccc(Cn2cnnn2)cc1	14	8	-4	5	3940	11	-15
Cc1ccccc1NC(=O)CCN1C(=O)c2ccccc2C1=O	-7	-12	4	0	3797	-1.1	17
CSc1nc(O)c(C(c2ccccc2)c2c(O)nc(SC)[nH]c2=O)c(=O)[nH]1	12	7	-13	7	4032	5.0	-4

(continued)
Molecule,Mtb hypoxia rep,Mtb hypoxia rep growth,PrP 5UTR inh,Sa ugtP lethal,Bead autofluor,RN4220 kill,BJeLR lethal
CCCOc1ccc(CNC(=S)NCc2ccc(OC(C)C)cc2)cc1,-2,1,-3,-3,2324,0.8,2
Cc1ccccc1NC(=O)N1CCCN(c2ccc(C#N)cn2)CC1,18,10,-5,3,3932,3.9,1
CCCOc1ccc(N2CC(C(=O)NCCc3ccc(OC)c(OC)c3)CC2=O)cc1 (configuration not stated),9,4,-22,10,5786,4.2,3
Nc1nnnn1N=Cc1cccc(O)c1,2,-1,x,6,x,-15,x
CCOc1ccc(N2C(=O)CC(SC(=NC)Nc3cccc(F)c3)C2=O)cc1 (configuration not stated),11,4,-31,-1,2462,-10,-5
COc1ccc(Nc2nc(C)cc(=O)[nH]2)cc1,7,-1,-17,-1,2960,-0.2,0
O=C(Nc1cccc(S(=O)(=O)N2CCOCC2)c1)C1CCCC1,-20,-11,-9,-1,2868,2.4,x
CC(C)n1cc(/C=C2/NC(=O)NC2=O)c2ccccc21,x,x,-4,x,4182,x,-5
Cc1cc(Cl)ccc1OCCCC(=O)OCC(=O)Nc1cccc(S(N)(=O)=O)c1,-3,4,-10,-7,3109,-3.4,x
Cc1cc(C(=O)NC2CCCc3c2cnn3-c2ccc(C(C)(C)C)cc2)nn1C (configuration not stated),5,12,-5,3,4219,-0.6,8
CN(C)c1ccc(/C=[N+](\[O-])C2N(c3ccccc3)C(=S)SC2(C)C)cc1 (configuration not stated),11,4,-2,5,2487,3.0,-7
Cc1ccc(C(=O)NC2CCS(=O)(=O)C2)cc1S(=O)(=O)N1CCCCCC1 (configuration not stated),3,11,-11,-3,4713,3.5,-2
CCCN1Cc2cccc(C(=O)NCc3ccccc3OC)c2C1=O,4,0,-9,6,3329,4.3,-3
CCN(CC)S(=O)(=O)c1ccc(C(=O)Nc2ccc3c(c2)OCO3)cc1,1,0,-13,7,4588,9.1,-5
COc1ccc(NC(=O)CCN2CCOCC2)c(OC)c1,12,9,-33,5,4017,11,-1
Cc1ccc(C)c(OCCC(=O)OCC(=O)c2ccc3c(c2)NC(=O)CO3)c1,4,-6,-16,2,4214,2.8,3
COc1ccc(-c2noc(CNC(=O)c3ccc4c(c3)OCO4)n2)cc1,-1,-1,-21,12,3860,-2.7,9
C#CCNC(=O)C1=C[C@@H](C2CCCCC2)C[C@@H](OCCCCO)O1,x,x,3,x,3990,x,-4
